Compound activity as filed in PubChem BioAssay.
gsp ag: agonists of gsp mutant (McCune-Albright syndrome); gsp mutant cells, cAMP HTRF, 30 min; control for the full effect not named in the record; Potency, µM (highest dose often 76.9 µM), inactives show top-dose activation (cAMP increase), actives largely listed as activators; hit rate 0.13% among 340,000; active = well fitted activation curve with a large enough effect; inconclusive = small, poorly fitted or top-dose-only effect, or another doubt; inactive = no such curve, though single readings can be large or run the other way; cell line not stated here;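 further: phosphodiesterase inhibitor Ro 20-1724 added with compounds to block cAMP breakdown; potency means the concentration at half of the fitted maximal effect; nearly all actives have a fitted effect of over 60% in size; about a fifth of the inactives were tested at one dose only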
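Cells stably selected in G418 were plated at 2000/well, grown 16-24 hr, then given compounds in DMSO with the PDE inhibitor […] (300 uM solution added) for 30 min at 37C; cAMP was read by HTRF.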
D2 PAM: potentiates the human D2 dopamine receptor allosterically. DiscoveRx D2 beta-arrestin cells, luminescence, 90 min; 100% = 57 uM dopamine signal. potentiation, % (no concentration beside the values). hit rate 0.23% among 360,000; active = potentiation of 50% or more; inconclusive = 30% to 50%; inactive = 30% or less;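 further: compound concentration not given in the record; tested on top of an EC20 dose of dopamine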
Target sequence (P14416 whole entry, looked up): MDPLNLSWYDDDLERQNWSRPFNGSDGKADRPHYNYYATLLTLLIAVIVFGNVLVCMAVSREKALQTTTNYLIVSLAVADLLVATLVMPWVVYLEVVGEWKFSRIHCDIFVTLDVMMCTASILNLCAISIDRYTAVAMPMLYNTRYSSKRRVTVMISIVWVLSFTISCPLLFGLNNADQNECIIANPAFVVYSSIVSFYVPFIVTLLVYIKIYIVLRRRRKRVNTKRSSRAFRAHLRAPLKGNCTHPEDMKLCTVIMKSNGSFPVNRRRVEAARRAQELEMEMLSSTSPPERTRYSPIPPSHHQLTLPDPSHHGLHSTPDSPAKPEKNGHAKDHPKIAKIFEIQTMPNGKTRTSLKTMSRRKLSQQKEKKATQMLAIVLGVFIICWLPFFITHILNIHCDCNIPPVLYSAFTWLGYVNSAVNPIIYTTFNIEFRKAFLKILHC
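PathHunter D2 cells, attached overnight at 37 deg C, received compound in DMSO plus dopamine at EC20 (50 nM final) for 90 min at 37 deg C. Beta-arrestin recruitment was read as luminescence after 1 h with detection reagent at ambient temperature.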
Menin-MLL FL inh: inhibitors of human menin-MLL interaction, wild-type MLL peptide; FP activity change, % at 61.4 µM; AID 1766; 290,000 tested, under 10 active; Fluorescence polarization, fluorescein-MLL peptide displacement from menin; inconclusive = falling polarisation curve, or a change in total fluorescence; inactive = total fluorescence flat and polarisation flat or rising; no compound was filed as active; the % refers to the polarisation; negative = inhibition;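 further: % of control where 0% means no effect; inhibitors lower the polarisation; unlabelled MLL peptide was the positive control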
gsp antagonist: gsp mutant antagonism; gsp-mutant cells, cAMP HTRF, 30 min; control for the full effect not named in the record; Potency, µM (series often up to 76.9 µM), for the others: at the top dose activity change, negative = inhibition, actives largely listed as inhibitors; hit rate 0.4% among 340,000; AID 624288; active = falling curve of any shape with a large fitted effect; inconclusive = falling curve, mostly with a smaller effect; inactive = flat or rising curve; cell line not stated here;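 further: intracellular cAMP measured with PDE inhibitor Ro 20-1724 present during compound exposure; potency means the concentration at half of the fitted maximal effect; on the % scale 0 is the no-effect control and ±100 the full control effect; nearly all actives have a fitted effect of over 65% in size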
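HTRF cAMP read-out (cAMP-d2 plus anti-cAMP antibody-K in lysis buffer, 30 min RT). Before lysis, cells are exposed to compounds with […] for 30 min at 37C in DPBS containing Ca/Mg, BSA and Tween 20.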
ClpP mod: qHTS Assay for Activators of ClpP | Potency, µM (top dose mostly 57.5 µM), for inactives: at the top dose activity change, negative = active | hit rate 1.9% among 340,000 | ATP-dependent Clp protease proteolytic subunit (Bacillus subtilis (strain 168)), P80244 | purified B. subtilis ClpP, FRET peptide cleavage, 20 min; active = well fitted falling curve with a large enough effect; inconclusive = small, poorly fitted or top-dose-only effect; inactive = no such curve, though single readings can be large or run the other way; further: potency means the concentration at half of the fitted maximal effect; the source files actives as falling curves though it sought activators and does not explain the sign; nearly all actives have a fitted effect of over 65% in size; many hits overshoot -100%
Target sequence (P80244 whole entry, looked up): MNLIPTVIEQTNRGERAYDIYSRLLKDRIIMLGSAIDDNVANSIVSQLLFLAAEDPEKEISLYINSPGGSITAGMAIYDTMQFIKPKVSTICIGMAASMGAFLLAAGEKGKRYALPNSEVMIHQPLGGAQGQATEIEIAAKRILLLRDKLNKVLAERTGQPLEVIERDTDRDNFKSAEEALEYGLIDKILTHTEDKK
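ClpP 10 microg/mL final, pH 8 Tris/KCl buffer with BSA, glycerol, Tween-20; compound pinned in; FRET-FV substrate; RT 20 min; Ex320/Em430; ΔFRET vs ADEP 5.8 microM, DMSO, no enzyme.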
Sfp PPTase inh: Sfp phosphopantetheinyl transferase inhibition. Biochemical Sfp PPTase activity, qHTS. Potency, µM, without a hit: max response, negative = inhibition, usual class: inhibitors. hit rate 3.5% among 310,000. AID 1490; active means well fitted inhibition curve with a large enough effect; inconclusive means small, poorly fitted or top-dose-only effect, or another doubt; inactive means no such curve, though single readings can be large or run the other way;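 further: the enzyme is Sfp with the accession as filed and its product quenches rhodamine fluorescence; potency means the concentration at half of the fitted maximal effect; 0% = enzyme reaction without inhibitor and -100% = no enzyme wells; top concentration of the series not given in the record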
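After 15 min at room temperature with compound, 15 nM Sfp received 5 uM rhodamine-CoA plus 12.5 uM BHQ-2-ybbR (50 mM Hepes pH 7.6, 10 mM MgCl2). Rate came from the fluorescence difference over 30 min, ex 525/em 598 nm.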
TRPV1 potentiator: potentiators of human vanilloid receptor 1 (TRPV1). TRPV1-expressing cells, Fluo-8 calcium influx, capsaicin EC20 potentiation; host cell line not named in the record; control for the full effect not named in the record. hit rate 0.02% among 320,000. potentiation, % at 8.33 µM. Q8NER1. AID 540277; active means potentiation above 80%; inconclusive means 30% to 80%; inactive means below 30%; further: 0% is about no effect
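TRPV1-expressing cells were cultured overnight at 35.5C and loaded with Fluo-8 calcium dye for 40 to 90 min at room temperature. After a 10 s baseline, compound was added and calcium influx was read kinetically for 3 min (ex 480/em 520 nm).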
Active calls of the source: *; u = inconclusive; x = no result given; & = joins results of further samples; [ ] = another dose, or the depositor's remark.

SMILES	gsp ag	D2 PAM	Menin-MLL FL inh	gsp antagonist	ClpP mod	Sfp PPTase inh	TRPV1 potentiator
COc1ccc(-n2c(SCC(=O)NCC3CCCO3)nc3c(c2=O)SC(C)C3)cc1 (stereo unspecified)	1.7%	-12.2	-5.6	2.1%	3.3%	4.8%	5.1
CC(=O)C[C@@H](O)CC(=O)[C@H]1OC(=O)CCCCCc2ccccc21	x	-0.3	x	8.2%	0.9%	x	x
CCOC(=O)CNC(=O)CSc1nccn1Cc1ccco1	5.8%[15.4 µM]	-4.7	1.0	-15.4%	0.4%	21.9%	2.1
O=C(NCCOc1cccc(Cl)c1Cl)c1cc(-n2cnnc2)ccc1Cl	-35.6%[inhibitor]	-11.1	0.1	2.3%	-1.0%	11.7%	7.7
CC(C)C(NC(=O)CCNC(=O)c1ccc([N+](=O)[O-])cc1)c1nc2ccccc2[nH]1 (stereo unspecified)	-7.4%	-4.2	x	6.8%	-0.1%	x	0.5
NC(=O)c1ccc(NC(=O)COC(=O)CC2Sc3ccccc3NC2=O)cc1 (stereo unspecified)	4.9%	2.7	x	4.8%	-1.5%	x	-5.0
O=C(O)c1cccc(N2C(=O)CSC2=S)c1	7.1%[15.4 µM]	3.8	19.6	-5.2%	x	3.2%	17.9
COc1cc(/C=C2\SC(N)=NC2=O)ccc1OCC(=O)Nc1ccccc1C	-0.3%	1.6	x	u	3.8%	x	9.0
Cc1ccc(C)c(OCC(=O)N/N=C/c2c(C)nn(-c3ccccc3)c2Cl)c1	x	x	4.2	x	x	2.1%	20.9
COC(=O)c1[nH]c2c(c1C)C(=O)CC(c1ccccc1)C2 (stereo unspecified)	-39.2%	6.8	2.0	9.7%	-0.9%	24.7%	4.1
FC(F)(F)c1nc(NCC2CCCO2)c2nnn(Cc3ccccc3Cl)c2n1 (stereo unspecified)	-56.0%[inhibitor]	-0.9	1.1	7.7%	8.7%	19.1%	-8.8
CN(C)CCN(C(=O)c1ccccc1Cl)c1nc2c(Cl)cccc2s1	21.9%	-37.8	0.2	0.0%	-3.7%	-12.3%	-5.9

Overlap with the part before: 2 compounds, followed by the next part.
SMILES	gsp ag	D2 PAM	Menin-MLL FL inh	gsp antagonist	ClpP mod	Sfp PPTase inh	TRPV1 potentiator
FC(F)(F)c1nc(NCC2CCCO2)c2nnn(Cc3ccccc3Cl)c2n1 (stereo unspecified)	-56.0%[inhibitor]	-0.9	1.1	7.7%	8.7%	19.1%	-8.8
CN(C)CCN(C(=O)c1ccccc1Cl)c1nc2c(Cl)cccc2s1	21.9%	-37.8	0.2	0.0%	-3.7%	-12.3%	-5.9
COC(=O)c1cc(C#N)c(N2CC(C)OC(C)C2)nc1C (stereo unspecified)	7.1%	0.7	-0.7	3.5%	x	16.3%	-11.2
O=[N+]([O-])c1ccc(O)c(/C=N/NC2=NS(=O)(=O)c3ccccc32)c1	-8.2%	5.0	u	8.9%	x	29.0%	-6.6
COc1cccc(N2CCN(C(=O)c3ccc(CS(=O)Cc4ccc(C)cc4)o3)CC2)c1 (stereo unspecified)	-24.2%	-7.6	0.9	-14.0%	2.3%	7.4%	-9.1
COc1ccc(-c2nn(C)c3sc(C(=O)NCc4ccco4)cc23)cc1OC	12.6µM*	-7.2	1.6	28.7%	-20.8%	-19.3%	4.6
Cc1ccccc1OCC(=O)Nc1ccc2c(c1)OCO2	-1.9%	-1.7	-2.0	u	1.6%	-0.9%	-19.2
COc1ccc(/C=C/C(=O)Nc2ccncc2)cc1OC	9.3%	2.2	-4.2	-6.7%	x	14.4%	0.0
CCOc1ccccc1N(CC)C(=O)c1ccc2c(=O)n3c(nc2c1)CCCCC3	u	-7.4	-0.2	-4.4%	-2.9%&0.8%	3.3%	-0.4
N#Cc1ccccc1OCC(=O)Nc1ccc2c(c1)OCCO2	-0.7%	-21.4	x	6.8%	1.2%	x	-24.4
O=C(c1ccc(Cl)cc1)N1CCCC(C(=O)N2CCN(c3ccccc3)CC2)C1 (stereo unspecified)	34.8%	-5.7	-6.8	-3.1%	-0.6%	3.2%	19.6
O=C(CN1CCCCC1)Nc1ccc(Br)cc1[N+](=O)[O-]	7.5%[15.4 µM]	-5.2	-5.1	-18.0%	x	-8.7%	-4.0
COc1ccc(C(c2c(O)ccc3ccccc23)N2CCOCC2)c(OC)c1 (stereo unspecified)	-16.5%	-13.1	-0.6	-14.6%	u	-23.0%	-3.0
O=C(NCCN1CCOCC1)c1cc2sccc2n1Cc1ccc(F)cc1	17.9%	-16.1	-0.6	u	-2.6%	0.5%	-17.1
CCOc1ccc(NC(=O)c2ccc(N3CC4CC(C3)c3cccc(=O)n3C4)c(NC(=O)c3cccnc3)c2)cc1 (stereo unspecified)	39.6%	-8.3	3.6	-8.1%	1.3%	15.5%	-11.4
CCN1CCCC1CNC(=O)c1cc2cc(OC)c(OC)cc2[nH]1 (stereo unspecified)	u	-25.5	-0.1	1.0%	3.7%	18.4%	1.6
Cc1ccc(S(=O)(=O)N2C[C@H]3C(=O)C[C@@H](c4cccc5ccccc45)N(S(=O)(=O)c4ccc(C)cc4)[C@H]3C[C@H]2c2ccc(Cl)cc2)cc1	u	0.0	x	x	-0.3%	x	x
O=C(NCc1ccco1)c1sc2cc(Cl)ccc2c1Cl	-42.5%[inhibitor]	-9.2	4.3	-7.4%	0.8%	-17.6%	8.3
Cc1ccc(-n2nnnc2SC(C)C(=O)Nc2ccc(Cl)cn2)cc1 (stereo unspecified)	-15.6%	-11.7	0.8	1.5%	0.7%	-6.9%	-25.5
O=c1cnnc(Nc2ccccc2F)[nH]1	2.2%	-2.7	2.8	-3.2%	x	8.4%	1.0
C#CCOCCOCCOCCNc1nc(N2CCN(C(=O)C([C@@H](C)CC)n3cc(C(N)CC(C)C)nn3)CC2)nc(N2CCN(C(=O)[C@H](CCC(=O)O)n3cc(C(N)CC(C)C)nn3)CC2)n1 (stereo partly specified)	8.9%	-15.2	0.4	5.0%	0.9%	0.2%	-11.5
Cc1noc(C)c1S(=O)(=O)N1CCC(C(=O)N2CCN(c3ccc(F)cc3)CC2)CC1	-16.9%	-20.9	0.4	2.8%	0.2%	9.0%	-6.8
CCOc1ccc(Cl)cc1CNCCCSc1ncccn1	-1.8%	-1.5	-3.1	15.4%	0.1%	-3.5%	12.2
Cc1ccc(NC(=O)c2cc(-c3cc(C)c(C)cc3O)n[nH]2)cc1C	16.6%	-7.8	1.8	15.2%	-3.3%	15.6%	-5.0
O=C(CSc1nnc(-c2cccs2)n1-c1ccccc1)NCC1CCCO1 (stereo unspecified)	2.0%	-7.1	1.1	-0.2%	-12.9%	-5.3%	27.8
O=C(NCc1cccs1)c1ccc(N2CCCC2=O)cc1	27.2%	-1.0	2.3	0.4%	-0.6%	-3.0%	8.0
COCCN(C(=S)Nc1cccc(OC)c1)C(C)c1cccs1 (stereo unspecified)	10.3%	-10.8	-1.3	-7.1%	-0.7%	-12.0%	-4.1
O=S(=O)(NCCCc1ccccc1)c1ccc(F)c(F)c1	0.7%[15.4 µM]	-1.9	0.3	8.2%	x	18.1%	10.3
CCN(CC)c1ccc(C2C(C(=O)OC(C)C)C(=O)CC(C)(O)C2C(=O)OC(C)C)cc1 (stereo unspecified)	3.0%	-4.7	-1.0	-24.5%	0.0%	7.9%	-7.7
CC(=O)Nc1ccc(S(=O)(=O)N2c3ccc(F)cc3CCC2C)cc1 (stereo unspecified)	-7.6%	-5.5	x	13.9%	0.0%	x	x
Cc1ccc2nc(-c3ccc(N4C(=N)SC5CS(=O)(=O)CC54)cc3)sc2c1 (stereo unspecified)	8.5%	-19.7	5.4	6.2%	-29.9%	-22.4%	-9.6
CSc1ccc(/C=C(\NC(=O)c2ccco2)C(=O)N2CCCCC2)cc1	-1.5%	5.5	x	-9.0%	-4.3%	-3.2%	7.1
CCCOC(=O)c1ccc(N2C(=O)c3ccccc3C2=O)cc1	-35.2%[inhibitor]	3.4	2.1	18.8%	2.4%	1.1%	-17.7
O=C(CCNS(=O)(=O)c1ccc2[nH]c(=O)oc2c1)NCc1ccccc1	1.3%	-4.8	x	6.4%	0.9%	9.5%	-31.7
COc1ccc(NC(=O)c2cc3c(Cl)nc4ccccc4c3s2)c(OC)c1	12.8%[15.4 µM]	-17.9	3.2	8.1%	-1.0%	3.1%	-8.1
CCOc1ccccc1NC(=O)N1C2CCCC1CC(NC(=O)C1CC1)C2 (stereo unspecified)	u	-11.4	-0.7	1.7%	0.6%	13.3%	20.2
COC(=O)CSc1nc2c(c(-c3ccc(O)cc3)c1C#N)CCCC2	u	0.6	3.2	-16.9%	x	-0.6%	10.4
COC(C(=O)Nc1ccc(C(C)=O)cc1)c1ccccc1 (stereo unspecified)	-4.7%[15.4 µM]	-7.1	1.5	2.2%	x	25.7%	-6.2
CNC(=O)C1CCC(=O)N1Cc1ccc(C)cc1 (stereo unspecified)	-4.2%	-11.7	0.3	14.6%	-2.0%	26.1%	11.1
O=C(NCc1cccnc1)c1ccccc1-c1nc(-c2ccccc2)no1	-3.2%[15.4 µM]	-7.7	4.1	-2.2%	x	-15.2%	6.0
COc1cccc(N(CC(=O)NCCSCc2ccco2)S(=O)(=O)c2ccccc2)c1	-19.1%[15.4 µM]	3.8	x	-6.9%	x	-6.8%	-3.3
COC(=O)CN1C(=O)[C@H]2[C@@H](c3ccc(C)o3)N3C(=O)CN(CC4CC4)C(=O)[C@@]3(Cc3ccccc3)[C@H]2C1=O	-2.5%	-10.4	2.3	5.7%	0.2%	9.4%	-1.4
O=C(c1ccc(N2C(=O)c3ccccc3C2=O)cc1)N1CCCCC1	u	-4.8	-1.0	3.0%	0.0%	7.4%	13.3
COc1ccc(Br)cc1/C=C/C(=O)NC(=S)Nc1ccc(Cl)c(C(=O)O)c1	-0.1%	-7.0	7.6	-10.4%	3.3%	-22.5%	9.9
COc1ccc(S(=O)(=O)N(C)C[C@H]2Oc3ccc(NC(=O)Cc4cn(C)c5ccccc45)cc3C(=O)N([C@@H](C)CO)C[C@@H]2C)cc1	x	1.2	x	-9.3%	-0.9%	x	x
Cc1cc2ncn(C(=O)N3CCOCC3)c2cc1C	2.9%	-14.5	1.9	4.4%	-0.3%	12.1%	-3.6
